Screens from PubChem BioAssay.
HIV TAR-Tat – HIV-1 TAR-Tat binding disruption; AID 1259389; hit rate 0.6% among 100,000; HIV-1 TAR RNA, Tat peptide displacement FRET; stronger effect = higher value; z-score (concentration not given with the values);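 also: score is relative to mean and SD of negative controls; some compounds called inactive have numbers as strong as hits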
CDC25B CDK2 inh – human CDC25B-CDK2/CyclinA binding inhibition | P30305+P24941 | HTRF CDC25B-CDK2/CyclinA binding, anti-His/anti-Flag; stronger effect = higher value | z-score (concentration not given with the values) | hit rate 0.72% among 94,000;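 also: score is relative to mean and SD of negative controls; strong numbers were not always called active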
* = called active by the depositor.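 The calls were made as follows: active = z-score from 3 up in half or more of its runs; inactive = the rest.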

`CCOC(=O)c1sc(N(C)C)nc1N` gave HIV TAR-Tat -0.03 and CDC25B CDK2 inh -3.5.
For CC1COc2ccc(C(=O)O)cc2N1Cc1ccccc1 (configuration not stated) the results were HIV TAR-Tat 0.94.
For CC1CCN(S(=O)(=O)c2ccc(N3CCCCS3(=O)=O)cc2)CC1 the results were HIV TAR-Tat 2.2.
For O=C(Oc1ccc2occ([N+](=O)[O-])c2c1)c1ccc(C(F)(F)F)cc1 the results were CDC25B CDK2 inh -2.6.
For CC12CN3CC(C)(CN(C1)C3c1ccccc1O)C2 (configuration not stated) the results were HIV TAR-Tat 1.8 and CDC25B CDK2 inh 0.05.
For Cc1nc(-c2ccc(NS(=O)(=O)c3ccc(OC(F)(F)F)cc3)cc2)cs1 the results were CDC25B CDK2 inh -0.43.
CCOc1ccc(C2c3c(oc4ccccc4c3=O)C(=O)N2Cc2ccc3c(c2)OCO3)cc1OCC (configuration not stated) was read as HIV TAR-Tat 1.2 and CDC25B CDK2 inh -0.33.
CC1(C)C(=O)Nc2ccc(S(=O)(=O)NCc3ccco3)cc21 was read as HIV TAR-Tat -0.95.
Screening Cc1c(NC(=O)Nc2ccc(F)cc2F)c(=O)n(-c2ccccc2)n1C returned HIV TAR-Tat 0.05 and CDC25B CDK2 inh -2.2.
`COCCNC(=O)c1c(O)nc2c(C)cccn2c1=O` gave HIV TAR-Tat 0.82 and CDC25B CDK2 inh -1.7.

Continued, overlapping the part above by 2 compounds.
Screening Cc1c(NC(=O)Nc2ccc(F)cc2F)c(=O)n(-c2ccccc2)n1C returned HIV TAR-Tat 0.05 and CDC25B CDK2 inh -2.2.
`COCCNC(=O)c1c(O)nc2c(C)cccn2c1=O` gave HIV TAR-Tat 0.82 and CDC25B CDK2 inh -1.7.
For CCOC(=O)c1c(-c2cccs2)csc1N the results were CDC25B CDK2 inh -0.37.
Screening C=CCNC(=O)c1ccc(N2CCCS2(=O)=O)cc1 returned HIV TAR-Tat 1.3.
For CN(CCCN1c2ccccc2CCc2ccccc21)CC(=O)c1ccc(Cl)cc1 the results were HIV TAR-Tat -0.16.
CCOc1nc(N)c(C#N)c(-c2ccc(C(F)(F)F)cc2)c1C#N was read as CDC25B CDK2 inh -1.8.
For COCCn1c(CN(C)Cc2ccccc2)nc2c1c(=O)n(C)c(=O)n2C the results were HIV TAR-Tat 1.6 and CDC25B CDK2 inh -1.
Screening N#Cc1c(N)n(Cc2ccccc2)c(=O)c2cc([N+](=O)[O-])ccc12 returned CDC25B CDK2 inh -1.9.
For O=C(C1CCCO1)N1CCN(S(=O)(=O)c2cc(S(=O)(=O)c3ccccc3)cs2)CC1 (configuration not stated) the results were CDC25B CDK2 inh 0.23.
`O=C(Cn1ncc2c(Cl)cccc21)NC1CCCc2ccccc21` (configuration not stated) gave HIV TAR-Tat 0.17 and CDC25B CDK2 inh -1.9.
For O=C(O)CC(Sc1ccc(Cl)cc1)C(=O)O (configuration not stated) the results were CDC25B CDK2 inh 0.52.
For COc1ccc(C2/C(=C(\O)c3ccc(F)cc3)C(=O)C(=O)N2CCCN2CCOCC2)cc1 (configuration not stated) the results were HIV TAR-Tat 0.78 and CDC25B CDK2 inh 0.53.
For CC(C)CC(=O)Nc1ccc(OCc2cc(=O)n3ccsc3n2)cc1 the results were HIV TAR-Tat 2.7 and CDC25B CDK2 inh -2.4.
Screening COc1ccc(OC)c(Nc2nnc(C)c(=O)[nH]2)c1 returned CDC25B CDK2 inh 0.56.
Screening Cc1ccc(C(=O)N2CCN(c3cccc4[nH]ccc34)CC2)cc1 returned CDC25B CDK2 inh -1.9.
Cc1ccc(N2CN=C3SCC(=O)N3C2)cc1Cl was read as CDC25B CDK2 inh -0.54.
Screening CCCSc1nc2c(c(=O)[nH]1)C(c1ccc(Cl)cc1)C(C(=O)OCC)=C(C)N2 (configuration not stated) returned HIV TAR-Tat -0.73 and CDC25B CDK2 inh -1.5.
Screening O=S(=O)(c1cccc2nsnc12)N1CCN(Cc2nc3ccccc3o2)CC1 returned HIV TAR-Tat 2.3.
Screening CCCCN1C(SCC(=O)N2CCC(C)CC2)=NS(=O)(=O)c2ccccc21 returned HIV TAR-Tat 1.5.
For COCCNc1ncnc2nc[nH]c12 the results were CDC25B CDK2 inh -0.59.
O=C(Cn1ncn2cccc2c1=O)N1CCc2ccccc2C1 was read as HIV TAR-Tat -0.14 and CDC25B CDK2 inh -0.99.
For CCCCCC(=O)Nc1nc2nc(C)c(Cl)c(=O)n2[nH]1 the results were HIV TAR-Tat 0.44 and CDC25B CDK2 inh -1.1.
O=C(O)CCC(=O)NCc1ccco1 was read as HIV TAR-Tat -0.5 and CDC25B CDK2 inh -1.4.
`Cc1ccc2nc(N3CCN(Cc4ccccc4)CC3)c3nnnn3c2c1` gave HIV TAR-Tat 1.1 and CDC25B CDK2 inh -1.8.
`Cc1nn(-c2nc3ccccc3o2)c2c1C(c1cc(Cl)ccc1F)CC(=O)N2` (configuration not stated) gave HIV TAR-Tat 1.1.
COCCN(C1CCN(C)CC1)S(=O)(=O)c1c(C)nc2sc(C)cn2c1=O was read as HIV TAR-Tat -0.68.
Screening CC1(C)CN(C(=O)C2CC2)c2ccc(S(=O)(=O)N3CCc4ccccc4C3)cc21 returned HIV TAR-Tat 1.5.
Screening CCOC(=O)c1[nH]c(C)c(C(=O)c2ccc(C)cc2)c1C returned CDC25B CDK2 inh -1.
`COC(=O)c1cc2c(c(CSc3cc(C)nc(C)n3)c1)OCOC2` gave HIV TAR-Tat 1.7 and CDC25B CDK2 inh 1.9.
CCOC(=O)c1c(C)[nH]c(C)c1S(=O)(=O)N(C)CC(=O)N1CCOCC1 was read as HIV TAR-Tat 0.37.
`O=C(NC1CC1)c1cncc(NS(=O)(=O)c2ccc(F)cc2)c1` gave HIV TAR-Tat 0.76.
Cc1ccc(C(C)C)c(OCc2nc3c4cnn(C)c4ncn3n2)c1 was read as CDC25B CDK2 inh -1.6.
For C=CCSc1n[nH]c(=O)[nH]c1=O the results were HIV TAR-Tat 0.33 and CDC25B CDK2 inh -1.3.
For Cc1ccc2c(c1)-c1c(c(C(=O)N3CCN(Cc4ccc5c(c4)OCO5)CC3)nn1C)CS2 the results were HIV TAR-Tat 0.34.
For CC(=O)OC[C@H]1O[C@@H](Oc2ccccc2)[C@H](OC(C)=O)[C@@H](OC(C)=O)[C@@H]1OC(C)=O the results were CDC25B CDK2 inh 0.14.
O=C(C1CC2CCCN2C12C(=O)Nc1ccccc12)N1CCN(c2ccccc2)CC1 (configuration not stated) was read as HIV TAR-Tat -0.34.
Cc1c(S(=O)(=O)NCCc2ccccn2)sc2ccc(Cl)cc12 was read as CDC25B CDK2 inh -1.1.
For O=c1c2c(nc3nc(NCc4c(F)cccc4Cl)[nH]n13)CCCC2 the results were HIV TAR-Tat 0.71 and CDC25B CDK2 inh 0.37.
CC1Sc2ccc(S(=O)(=O)CCC(=O)N(C)c3ccc(Br)cc3)cc2NC1=O (configuration not stated) was read as HIV TAR-Tat 0.45.
Cc1nnc2c(NCc3cccnc3)nc3ccc(C(=O)c4ccccc4)cc3n12 was read as HIV TAR-Tat 0.22.
For CC(C)(C)NC(=O)c1oc2ccccc2c1NC(=O)C(C)(C)C the results were HIV TAR-Tat -0.16.
`Fc1ccc(-c2csc(-c3cccs3)n2)cc1` gave CDC25B CDK2 inh -0.93.

Molecules shown so far containing an aryl methoxy group (2):
For COc1ccc(C2/C(=C(\O)c3ccc(F)cc3)C(=O)C(=O)N2CCCN2CCOCC2)cc1 (configuration not stated) the results were HIV TAR-Tat 0.78 and CDC25B CDK2 inh 0.53.
Screening COc1ccc(OC)c(Nc2nnc(C)c(=O)[nH]2)c1 returned CDC25B CDK2 inh 0.56.

Following part
`CC(C)OC(=O)c1cccc(C(=O)Oc2ccccc2)n1` gave HIV TAR-Tat 1.1 and CDC25B CDK2 inh -1.1.
`CCCCCCCOC(=O)C1=C(C)Nc2nc3ccccc3n2C1c1cccnc1` (configuration not stated) gave HIV TAR-Tat 0.31 and CDC25B CDK2 inh 0.53.
Screening Cc1ccc(CNC(=O)CCS(=O)(=O)c2ccc3c(c2)CC(=O)N3C)o1 returned HIV TAR-Tat 0.54.
Screening O=C(OCc1ccccc1)C1=NNC2C(=O)N(c3ccc(Br)cc3)C(=O)C12 (configuration not stated) returned HIV TAR-Tat 1.6 and CDC25B CDK2 inh 0.3.
Screening CCN1C(=O)C2CCCCN2c2ccc(C(=O)O)cc21 (configuration not stated) returned HIV TAR-Tat 2.1.
COc1ccccc1N1CCN(C(=O)c2cnn3c(C)c(Cc4ccccc4)c(C)nc23)CC1 was read as CDC25B CDK2 inh 0.23.
`COc1ccc(-c2c(C(F)(F)F)oc3cc(OC(=O)c4cccnc4)ccc3c2=O)cc1OC` gave HIV TAR-Tat 0.26 and CDC25B CDK2 inh -1.5.
`C=CCSc1nc2c(c(=O)[nH]1)C(c1cccs1)C(C(=O)OC)=C(C)N2` (configuration not stated) gave HIV TAR-Tat 1 and CDC25B CDK2 inh -1.1.
`CC(=O)Nc1ccccc1SCc1cc(=O)n2nc(C3CCCCC3)sc2n1` gave HIV TAR-Tat 0.37.
`CCCC1CC(CSc2ncn[nH]2)OC1=O` (configuration not stated) gave HIV TAR-Tat -0.77 and CDC25B CDK2 inh 0.1.

Of the compounds above, these contain a nitro group on carbon.
For O=C(Oc1ccc2occ([N+](=O)[O-])c2c1)c1ccc(C(F)(F)F)cc1 the results were CDC25B CDK2 inh -2.6.
Screening N#Cc1c(N)n(Cc2ccccc2)c(=O)c2cc([N+](=O)[O-])ccc12 returned CDC25B CDK2 inh -1.9.

Three structures from above, ordered by molecular weight, highest first:
COc1ccccc1N1CCN(C(=O)c2cnn3c(C)c(Cc4ccccc4)c(C)nc23)CC1 was read as CDC25B CDK2 inh 0.23.
Screening O=C(OCc1ccccc1)C1=NNC2C(=O)N(c3ccc(Br)cc3)C(=O)C12 (configuration not stated) returned HIV TAR-Tat 1.6 and CDC25B CDK2 inh 0.3.
Screening CCN1C(=O)C2CCCCN2c2ccc(C(=O)O)cc21 (configuration not stated) returned HIV TAR-Tat 2.1.

Next section:
`Cc1c(C2CCN(S(=O)(=O)c3cnc[nH]3)CC2)c2ccccc2n1Cc1ccc(Cl)cc1` gave HIV TAR-Tat 1.5.
CCOCCCNC(=O)c1ccc(N2CCSc3ncccc32)s1 was read as HIV TAR-Tat 0.1.
For COCCn1c2c(c(=O)[nH]c1=O)C(c1ccccc1C)C1=C(N2)c2ccccc2C1=O (configuration not stated) the results were HIV TAR-Tat 15 and CDC25B CDK2 inh 1.7.
O=C(Nc1ccccc1Br)C1CCN(c2cnc3ccccc3n2)CC1 was read as HIV TAR-Tat 0.71 and CDC25B CDK2 inh -1.4.
CN(CC(=O)NCc1cccs1)S(=O)(=O)c1ccc2c(c1)CCCC(=O)N2 was read as HIV TAR-Tat 0.3.
For Cn1c(=O)c2sccc2n2c(CCC(=O)Nc3ccc(F)cc3F)nnc12 the results were HIV TAR-Tat -1.2 and CDC25B CDK2 inh 3.8.
COc1cccc(C(=O)OCC(=O)c2ccccc2)c1OC was read as CDC25B CDK2 inh -1.8.
`CN(C)CCNC(=O)CCCn1c(=O)c2cccn2c2cccnc21` gave HIV TAR-Tat 0.75.
Screening CN(C)C(=O)c1ccc2c(c1)N(CC(=O)N1CCCCC1)C(=O)C1CCCCN21 (configuration not stated) returned HIV TAR-Tat 1.6.
Screening COc1c(Cl)cc(Br)c(OC)c1C(N)=O returned CDC25B CDK2 inh -0.83.
Cc1cc(C)c2c(=O)[nH]c(SCC(=O)Nc3ccc(Br)cc3)nc2n1 was read as CDC25B CDK2 inh -1.4.
Screening COc1ccccc1N1CCN(S(=O)(=O)c2ccc3[nH]c(=O)[nH]c3c2)CC1 returned HIV TAR-Tat 0.18 and CDC25B CDK2 inh -1.3.
`COc1ccc(NC(=O)CSc2nc3c(c(=O)[nH]2)CCCC3)c(OC)c1` gave HIV TAR-Tat -0.06 and CDC25B CDK2 inh -1.6.
For Cc1c(C)c2cc3c(C)coc3c(C)c2oc1=O the results were CDC25B CDK2 inh -1.3.
O=C1CSc2ccc(S(=O)(=O)N3CCC(C(=O)NCc4cccs4)CC3)cc2N1 was read as HIV TAR-Tat -0.58.
Screening O=C(Cn1nc(-c2ccccc2)c2ccccc2c1=O)c1ccc(Br)cc1 returned HIV TAR-Tat 1.9 and CDC25B CDK2 inh -3.8.
CCN1CCCC1CNC(=O)c1cnc2sc3c(n2c1=O)CCC3 (configuration not stated) was read as HIV TAR-Tat 0.8.
For CC1N=C2c3ccccc3N=C(SC(C)C(=O)Nc3ccc(Cl)cc3F)N2C1=O (configuration not stated) the results were HIV TAR-Tat -1.2.
`COc1ccc(-c2cc(N)n(S(=O)(=O)c3ccc(OC)cc3)n2)cc1` gave HIV TAR-Tat 0.17 and CDC25B CDK2 inh -0.84.
For Cc1ccc(S(=O)(=O)Nc2cccc(-c3ccc(S(C)(=O)=O)nn3)c2)c(C)c1 the results were HIV TAR-Tat -0.23.
CCn1nc(C)c(CCNC(=O)NCCC(C)C)c1C was read as HIV TAR-Tat -1.3.
For Cc1c(C(=O)NCC2CCCO2)oc2ccc(S(=O)(=O)N3CCCC3)cc12 (configuration not stated) the results were CDC25B CDK2 inh -0.67.
For CC1CCCCN1C(=O)C(=O)Nc1ccc2nc3n(c(=O)c2c1)CCCCC3 (configuration not stated) the results were HIV TAR-Tat 0.34 and CDC25B CDK2 inh -0.72.
Screening O=C(Nc1cc(F)ccc1F)c1cc2c(s1)-c1ccccc1OC2 returned HIV TAR-Tat 1.1 and CDC25B CDK2 inh 0.01.
`Clc1ccc(-c2noc3ncnc(NCc4cccc(Cl)c4)c23)cc1` gave HIV TAR-Tat 0.2 and CDC25B CDK2 inh -1.4.
COc1ccc(CCNc2nc3ccccc3n3cnnc23)cc1OC was read as HIV TAR-Tat 0.25 and CDC25B CDK2 inh -1.3.
`COC(=O)C1C(=O)Oc2ccc(Br)cc2C1C(C)C(=O)c1ccc(C)cc1` (configuration not stated) gave CDC25B CDK2 inh -0.74.
`Cc1cc(C)c(S(=O)(=O)Nc2ccc3c(c2)CCC(=O)N3)cc1C` gave HIV TAR-Tat 0.63.
Screening C=CCN(CC=C)Cc1c(C)[nH]c2ccc(C)cc2c1=O returned HIV TAR-Tat 0.72 and CDC25B CDK2 inh -2.7.
